Assay outcomes (PubChem BioAssay)
Calb biofilm kill = clotrimazole potentiators killing C. albicans biofilm, primary screen, 4-compound mixtures; inhibition, % at 7.6 µM; hit rate 0.02% among 120,000; C. albicans biofilm persisters + clotrimazole, fluorescence viability; primary screen in compound mixtures of four per well;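 active = inhibition above 30.3% in the primary screen of four-compound pools, then above 30% when the compound was retested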;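 note: compounds exposed to preformed 24 h biofilms for 48 h; the number belongs to the whole pool; some results filed as inactive read as strong as hits; inactives centre near 12; 0% = biofilm with clotrimazole alone and 100% = kill control; retested singly at about 60 µM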
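Probe or stimulus – Clotrimazole 50 µg/mL co-treatment · System – C. albicans biofilms · Schedule – 24 h biofilm formation, then 48 h compound exposure, 37 °C · Evaluation – percent inhibition of biofilm viability · Technique – 2-h Alamar Blue fluorescence, 535/590 nm excitation/emission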
* marks the source's active call; other numbers are inactive results. These rows are one share of the data; the hit share may differ from the screen's.

SMILES | Calb biofilm kill
O=C(O)CCn1cc(/C=C/C(=O)c2ccc(Cl)cc2)c(-c2cccc(Br)c2)n1 | 5
CC(C)C[C@H](NC(=O)c1nc[nH]c1C(=O)N1CCc2ccccc2C1)C(=O)OC(C)(C)C | 13
O=C1/C(=C/N(C(=O)c2ccco2)c2ccc(Cl)cc2)Sc2ccccc21 | 17
COc1ccc(NC2=CC(c3ccc(OC)cc3)N(c3ccc(OC)cc3)C2=O)cc1 (stereo not drawn) | 13
COc1cc(OC)cc(-c2cc3nc(C)c(CCC(=O)NCc4ccccc4)c(C)n3n2)c1 | 3
CCc1cc(C(=O)Cc2ccc(F)cc2)c(O)cc1O | 10
COC(=O)COc1cccc2c(=O)n(CC(=O)NCCc3ccc(OC)c(OC)c3)ccc12 | 5
S=c1[nH]nc(COc2ccc(Cl)cc2)n1Cc1ccccc1 | 5
Cc1ccc(S(=O)(=O)NCCc2nnc3ccc(SCC(=O)Nc4nc(C)cs4)nn23)cc1 | 16
CC(C)(C)NC(=S)N/N=C/c1cccnc1 | 15
O=C(O)CCN(Cc1ccccc1)S(=O)(=O)c1c(Cl)cccc1Cl | 35
CCOc1cc(/C=N/O)ccc1OCc1ccccc1F | 10
Cn1c(O)c(N=Nc2ccc(F)cc2)c2ccccc21 | 13
COc1ccccc1NS(=O)(=O)c1cc(NC(=O)C(C)C)ccc1N1CCCCC1 | 10
O=C(CCl)Nc1cccc2ncccc12 | 27
c1ccc(-c2ccccn2)nc1 | 18
O=C(N/N=C/C(Cl)=C\c1ccccc1)c1ccco1 | 17
S=c1nccc(-c2cccs2)[nH]1 | 11
Cc1ccc(S(=O)(=O)N2CCC(=O)N(C(COCc3cccc(Cl)c3)C(C)C)CC2)cc1 (stereo not drawn) | 23
O=C(NC1CCCCC1)C(c1ccc(F)cc1)N(Cc1ccc2c(c1)OCO2)C(=O)c1cnsn1 (stereo not drawn) | 12
O=C(c1cccnc1)N1N=C(C2CCCCC2)CC1(O)C(F)(F)F (stereo not drawn) | 23
O=C(CN1CCN(S(=O)(=O)c2ccccc2)CC1)NC(=O)NCc1ccco1 | 19
Cc1cccc(OCC(=O)N(Cc2ccc(N(C)C)cc2)C2CCS(=O)(=O)C2)c1 (stereo not drawn) | 15
O=C(CCNC(=O)c1ccccc1Cl)Nc1nnc(C2CC2)s1 | 2
O=C(NCC(=O)N1CC(O)CC1C(=O)N1CCCC1C(=O)OCc1ccccc1)OCc1ccccc1 (stereo not drawn) | 29
Next part.
SMILES | Calb biofilm kill
O=C1OCC2OC(O)C(O)C(O)C2OC(=O)c2cc(O)c(O)c(O)c2-c2c(O)c(O)c3oc(=O)c4c(c(O)c(O)c5oc(=O)c2c3c54)-c2c1cc(O)c(O)c2O (stereo not drawn) | 9
CCOC(=O)c1[nH]c2ccc(OC)cc2c1NS(=O)(=O)c1ccc(Cl)s1 | 3
CCCCOc1ccc(CSc2nnc(C)n2N)cc1[N+](=O)[O-] | 7
COc1ccc(OC)c(Nc2nc3nonc3nc2N2CCCC(C)C2)c1 (stereo not drawn) | 10
c1ccc(-c2nc3c4ccccc4ccn3c2CN2CCCCC2)cc1 | 22
O=C(Nc1nnc(Cc2ccc(Cl)cc2)s1)c1cccnc1 | 12
O=C(NN1CCOCC1)C12CC3CC(CC(C3)C1)C2 | 15
O=[N+]([O-])c1cccc(-c2ccc3nnc(SCc4ccccn4)n3n2)c1 | 15
CCCCC1=CC2=CC(=O)C(C)(OC(=O)CCc3ccccc3)C(=O)C2=CO1 (stereo not drawn) | 7
O=S(=O)(c1ccccc1)N1CCN=C1SCc1ccc(Cl)cc1 | 13
CC(C)c1ccc(NC(=O)Cn2c(=O)oc3cccnc32)cc1 | 22
CC(C)N(C(=O)Cn1cc(SCC(=O)N2CCCC2)c2ccccc21)C(C)C | 13
CC(=O)Nc1ccc(S(=O)(=O)Oc2cccc(/C=N/N=C3/NC(=O)C(CC(=O)O)S3)c2)cc1 (stereo not drawn) | 15
O=C(CNC1CCCC1)Nc1cc(Cl)ccc1[N+](=O)[O-] | 21
COc1ccc(CCNC(=O)c2nnn(CC(=O)Nc3cccc(F)c3)c2N)cc1OC | 17
CC(=O)c1sc2nc(-c3ccc(C)cc3)c3c(c2c1N)CCCC3 | 18
COc1cc(C(=O)NCc2cc(C)nc3ccccc23)cc(OC)c1OC | -1
O=C(Nc1ccc(O)c(-c2nc3ccccc3s2)c1)c1cccs1 | 12
Cc1occc1C(=O)NN1C(=O)C2C3CCC(O3)C2C1=O (stereo not drawn) | 17
Clc1ccc(-c2ccc(C=Nc3ccc(N4CCOCC4)cc3)o2)cc1 | 11
COc1cc(C(=O)NCC(=O)OCC(=O)N2CCc3ccccc32)cc(OC)c1OC | 5
CC12CN3CC(C)(CN(C1)C3c1c[nH]c3ccccc13)C2=O (stereo not drawn) | 28
CCOC(=O)c1c(O)c2ccccc2n(C)c1=O | 14
O=S(=O)(c1cnc(Cl)c(Cl)c1)N1CCc2ccccc21 | 12
O=C(NCc1ccccn1)c1cc2c(ccc3ccccc32)oc1=O | 16
(continued)
SMILES | Calb biofilm kill
Cc1ccc(S(=O)(=O)N/N=c2\sc3ccccc3n2C)cc1 | 5
COc1ccc(C(=O)Nc2cnc3ccccn3c2=O)cc1 | 5
COc1ccc(C(=O)N2CCNC(=O)C2CC(=O)Nc2ccc(C)cc2)cc1 (stereo not drawn) | 4
O=C(O)C1CCCCC1C(=O)Nc1cc(C(F)(F)F)ccc1Cl (stereo not drawn) | 4
Cc1ccc2c(c1)N1C(=O)c3ccccc3C1C1=C(CC(C)(C)CC1=O)N2 (stereo not drawn) | -6
Cc1ccc(NC2=NC(c3ccc(F)cc3)n3c(nc(C)cc3=O)N2)c(C)c1 (stereo not drawn) | 7
COc1ccc(S(=O)(=O)N2CCOCC2)cc1N=Nc1sc(N)nc1-c1ccccc1 | 26
Oc1ccc(-c2nc3ccccc3s2)c(O)c1 | 17
Cc1nnc(NC(=O)CSc2ccc([N+](=O)[O-])cn2)s1 | -1
O=C1/C(=C/c2cccc(Br)c2)SC(=S)N1/N=C/c1cc([N+](=O)[O-])ccc1O | -7
COc1ccc(NC(=O)C(C)N2C(=O)c3ccccc3C2=O)cc1S(=O)(=O)N1CCOCC1 (stereo not drawn) | 2
CC(C)CN1CCC(CN(C)Cc2nc(-c3cnccn3)no2)CC1 | 5
O=C(Nc1ccccc1Cl)NC1(C(=O)N2CCCCC2)CCCCC1 | -6
CCOc1ccc2nc(SCc3ccc(F)cc3)sc2c1 | 22
CCOC(=O)c1[nH]c2ccccc2c1NC(=O)c1ccc(S(=O)(=O)N2CCCC2)cc1 | 2
CCOC(=O)c1c(NS(=O)(=O)c2ccc(Br)cc2)sc2c1CCC2 | 15
CCc1ccccc1NC(=S)NCc1cccn1C | 13
COc1ccc(C(C)=O)cc1COC(=O)c1ccc(S(=O)(=O)N(C)C)cc1 | 18
Cc1ccc(S(=O)(=O)CC(O)COc2ccc(F)cc2Cl)c(C)c1 (stereo not drawn) | 14
C/C(=C/CCC(C)C1CCC2(C)C3CCC4C(C)(C)C(=O)CCC4(C)C3=CCC12C)C(=O)O (stereo not drawn) | 11
Cc1ccc(NC(=O)Cc2c(C(=O)O)n(C)c3ccccc23)cc1F | 11
CCC1C(=O)N=C(SCC(=O)Nc2ccc(Br)cn2)NC1=O (stereo not drawn) | 2
O=C(CCCl)Nc1ccc(S(=O)(=O)NCc2ccco2)cc1 | 18
COc1cc(C2/C(=C(\O)c3ccc4c(c3)CC(C)O4)C(=O)C(=O)N2Cc2ccco2)ccc1O (stereo not drawn) | -11
CSc1ccc(/C=N\NC(=O)CC(=O)NC(C)C)cc1 | 1
Next part
SMILES | Calb biofilm kill
O=C(CCc1ccccc1)NNC(=O)Cc1ccc(Cl)cc1 | 9
Cc1ccc(C(=O)COc2ccccc2N2C(=O)c3ccccc3C2=O)cc1 | 7
CCOC(=O)c1c(N2C(=O)Nc3ccccc3N2O)sc2c1CCCCC2 | 11
CC(C(=O)Nc1ncn[nH]1)N1C(=O)c2ccccc2C1=O (stereo not drawn) | 12
CCCCNC(=O)NNC(=O)c1cc(C)on1 | 1
O=C(O)/C=C/C(=O)Nc1ccc(Cl)cc1C(=O)c1ccccc1 | 6
Clc1ncc2[nH]cnc2n1 | 17
CNC(=O)NNC(=O)c1csc(Cc2c(Cl)sc3ccc(Cl)cc23)n1 | 15
O=[N+]([O-])c1ccccc1OCCCn1cnc2ccccc21 | 13
CCCNc1cc(C)c(C#N)c2nc3ccccc3n12 | 17
N#Cc1c(NC(=O)c2cccc(S(=O)(=O)Nc3ccc(C(=O)O)cc3)c2)sc2c1CCCC2 | 17
O=C(CSc1nc2ccccc2c(=O)n1-c1ccc(F)cc1)Nc1ccc(N2CCOCC2)cc1 | 16
CCCN1C(=O)CC(Sc2ncccc2C(=O)O)C1=O (stereo not drawn) | 24
CCOc1ccc(-c2nnc3ccc(SC(C)C)nn23)cc1 | 10
CNCC(=O)Nc1c(C)n[nH]c1C | 21
COc1ccccc1N1CCN(C(=O)Cn2nc3n(C)c4ccccc4n3c(=O)c2=O)CC1 | 15
Cc1nnc(SCc2nc3sc(C(=O)O)c(C)c3c(=O)[nH]2)s1 | 9
COc1ccccc1CNC(=O)c1ccc(-c2ccccc2)cc1 | 12
O=C(NCc1ccccc1)c1ccccc1C(=O)c1ncc[nH]1 | 16
O=C(CN1CCN(Cc2ccccc2Cl)C1=O)NCCCN1CCOCC1 | 26
O=C(NCc1ccco1)c1ccc2c(=O)n(-c3ccccc3)c(=O)n(Cc3cccc(F)c3)c2c1 | 6
COc1ccc(S(=O)(=O)NN(C)c2nc(C(F)(F)F)nc3ccccc23)cc1 | 14
O=C1N[C@@H](Cc2cnc[nH]2)C(=O)N2CCC[C@@H]12 | 11
CC(=O)OCC1=C(C(=O)O)N2C(=O)C(NC(=O)c3ccc(F)cc3)C2SC1 (stereo not drawn) | 11
O=C(O)c1ccc(C(=O)c2ccc3c(c2)C(=O)N(CCO)C3=O)cc1 | 12

16 entries from above, sorted by length of the SMILES, largest number first:
SMILES | Calb biofilm kill
CC(=O)Nc1ccc(S(=O)(=O)Oc2cccc(/C=N/N=C3/NC(=O)C(CC(=O)O)S3)c2)cc1 (stereo not drawn) | 15
C/C(=C/CCC(C)C1CCC2(C)C3CCC4C(C)(C)C(=O)CCC4(C)C3=CCC12C)C(=O)O (stereo not drawn) | 11
O=C(NC1CCCCC1)C(c1ccc(F)cc1)N(Cc1ccc2c(c1)OCO2)C(=O)c1cnsn1 (stereo not drawn) | 12
Cc1ccc(S(=O)(=O)N2CCC(=O)N(C(COCc3cccc(Cl)c3)C(C)C)CC2)cc1 (stereo not drawn) | 23
CCOC(=O)c1[nH]c2ccccc2c1NC(=O)c1ccc(S(=O)(=O)N2CCCC2)cc1 | 2
COc1cc(OC)cc(-c2cc3nc(C)c(CCC(=O)NCc4ccccc4)c(C)n3n2)c1 | 3
O=C(O)CCn1cc(/C=C/C(=O)c2ccc(Cl)cc2)c(-c2cccc(Br)c2)n1 | 5
Cc1ccc2c(c1)N1C(=O)c3ccccc3C1C1=C(CC(C)(C)CC1=O)N2 (stereo not drawn) | -6
COc1ccccc1NS(=O)(=O)c1cc(NC(=O)C(C)C)ccc1N1CCCCC1 | 10
O=C(O)/C=C/C(=O)Nc1ccc(Cl)cc1C(=O)c1ccccc1 | 6
O=C(CN1CCN(Cc2ccccc2Cl)C1=O)NCCCN1CCOCC1 | 26
CCC1C(=O)N=C(SCC(=O)Nc2ccc(Br)cn2)NC1=O (stereo not drawn) | 2
COc1ccccc1CNC(=O)c1ccc(-c2ccccc2)cc1 | 12
CCCNc1cc(C)c(C#N)c2nc3ccccc3n12 | 17
CCc1ccccc1NC(=S)NCc1cccn1C | 13
c1ccc(-c2ccccn2)nc1 | 18

Later entries.
SMILES | Calb biofilm kill
Cc1nnc(NC(=O)CSc2nnc(C)n2-c2ccc(F)cc2)s1 | 18
CC(C)CNC(=O)C(=O)Nc1ccc(N(C)C)cc1 | 3
Cc1c2c(nc3ccccc13)OCC2 | 8
O=C(Cc1cc(=O)[nH][nH]1)N/N=C/c1ccccc1Cl | 12
O=C(CNS(=O)(=O)c1ccc2ccccc2c1)NCCc1ccccn1 | 7
CCN1CCN(Cc2ccc(NC(=O)c3cc(NC(=O)c4cc5cccc(OC)c5o4)cc(OC)c3)cc2C(F)(F)F)CC1 | 18
COc1ccc(CN=Cc2c(C(=O)O)[nH]c3ccccc23)cc1 | 12
Cc1ccc([N+](=O)[O-])c(OCC(=O)OCC(=O)c2ccccc2)c1 | 6
O=C(c1cc(-c2ccncc2)nc2ccc(Cl)cc12)N1CCN(Cc2ccc3c(c2)OCO3)CC1 | 18
CCOC(=O)c1cnc2ccc(C)cc2c1NCCO | 8
CCC(=O)N1N=C(c2ccc(NS(=O)(=O)CC)cc2)CC1c1ccc(C)cc1 (stereo not drawn) | -2
O=C(CN(c1ccccc1)S(=O)(=O)c1ccccc1)NCCSc1ccccn1 | 7
FC(F)(F)c1cccc(-c2ccc(/C=N/Nc3nncc(-c4ccccc4)n3)o2)c1 | 4
Nc1nc(-c2ccccc2)nn1C(=O)c1ccco1 | 16
Cc1cccc(C(=O)NNC(=O)c2cccc(C)c2)c1 | 10
C=CCn1c(CCc2ccc(OC(C)C)cc2)n[nH]c1=S | 13
Cc1ccc(C)c(NC(=S)N=Nc2c(O)n(C)c3ccc(S(=O)(=O)N4CCOCC4)cc23)c1 | 3
CCNC(=S)N1CCC(NC(=O)c2ccco2)CC1 | 0
Cc1cccc(CCNC(=O)CCNC(=O)Cn2ccc3ccccc3c2=O)c1 | 19
Cc1cccc(Cn2cccc2/C=C2/C(=N)N3C=CSC3=NC2=O)c1 | 9
C=C(C)C(=O)Nc1cccc(C2=NOC3(C2)C[C@@H](C(N)=O)N(C(=O)c2cc([N+](=O)[O-])cc([N+](=O)[O-])c2)C3)c1 (stereo partly drawn) | 9
CCOC(=O)N1CCN(C(=O)CS(=O)(=O)c2cn(Cc3ccc(F)cc3)c3ccccc23)CC1 | 16
O=C(Nc1ccc(S(=O)(=O)Nc2nccs2)cc1)c1ccc(S(=O)(=O)N2CCOCC2)cc1 | 16
CSc1nncc(/C(C)=N/O)n1 | -7
